Bioassay records (PubChem)
Ecoli rRNA inh = inhibitors of bacterial rRNA selective over humanized ribosomes; E. coli WT GFP vs humanized-ribosome RFP mutants, fluorescence, 24 h; stronger effect = lower value; DMSO median 0, no signal -100; GFP signal change (wild-type ribosome), % (test concentration not listed); 350,000 tested, 1.6% active; AID 720706;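 active = significant combined selectivity score with lowered wild-type GFP, culture density cut under 30%, mutant RFP and density less affected; inactive = any of these conditions unmet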; also: one replicate is shown; some compounds called inactive have numbers as strong as hits
Beta apoptosis = blocks beta cell apoptosis. INS-1E cytokine-induced death, ATP luminescence, 48 h; percent of positive-control rescue, neutral wells zero. AID 435005. protection from apoptosis, % (test concentration not listed). 300,000 tested, 0.8% active;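 active = all replicates at 75% or more, or half of them and the mean; inconclusive = half reach 75% but not the mean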;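 also: 0% = cytokine-treated negative control wells and 100% = positive control rescue; higher means more ATP so stronger rescue from cytokine killing; wells of about 40 µL received 100 nL stock; the first replicate is given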
Calb FLC = affects C. albicans growth with fluconazole; C. albicans CaCi-2 (fluconazole-resistant clinical isolate) + fluconazole, Alamar Blue growth, 48 h; growth inhibition, % (concentration not given with the values); 300,000 tested, 0.57% active; AID 1979;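 active = most replicates above 75%; inconclusive = exactly half above 75%; inactive = most below 75%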;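 also: all wells also contain fluconazole at 8 µg/ml as a sub-toxic cotreatment; 0% = median of DMSO wells and 100% = median of geldanamycin control wells; wells of about 8 µL received 7.5 nL stock; the first replicate is given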
Vif TR-FRET = inhibitors of Vif binding to APOBEC3G peptide, primary screen, biochemical, TR-FRET, GST-Vif 1-94, biotin-A3G peptide, dose response retest (AID 1117319); TR-FRET GST-Vif / biotin-A3G peptide binding; higher % means a stronger effect; test concentration not given here; strong numbers were not always called active; 260,000 tested, 0.57% active; inhibition, %, or IC50 in µM where a hit was titrated;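 active = above the screen mean plus three standard deviations and confirmed in dose response; inconclusive = results disagree or hit not tested in dose response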;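 also: Vif residues 1-94 fused to GST binding biotinylated APOBEC3G peptide 110-148; 0% = full assay without inhibitor and 100% = GST in place of GST-Vif; retest series ran down from 100 µM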
Bfl-1 A1 inh = inhibitors of the anti-apoptotic protein A1, read as caspase activation; MEF A1-2A-BIM cells, Caspase-Glo 3/7 luminescence, 3 h; percent of clofoctol response, vehicle zero; caspase activation, % (concentration not given with the values); 330,000 tested, 0.066% active;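 active = over half of replicate activation scores above 10%, or exactly half above 10 with the replicate mean above 10; inconclusive = replicate mean below 10 yet half the replicates above 10; inactive = over half of replicates below 10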;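 also: wells of about 30 µL received 50 nL stock; many hits fall short of the cut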
AF4-AF9 inh = blocks AF4 peptide binding to human AF9; AlphaScreen, biotin-AF4 peptide binding to FLAG-AF9; inhibition, % at 10 µM; 350,000 tested, 0.47% active; AID 651704;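 active = every replicate reaching a set inhibition limit, whatever the replicate mean, cut at about 25% in these data; inconclusive = mean inhibition reaches that limit but some replicates miss it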;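 also: 0% = plate neutral control median and 100% = total signal loss; the record names both 10 and 1 µM as test concentration; the first replicate is given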
Target sequence (P42568 whole entry, looked up): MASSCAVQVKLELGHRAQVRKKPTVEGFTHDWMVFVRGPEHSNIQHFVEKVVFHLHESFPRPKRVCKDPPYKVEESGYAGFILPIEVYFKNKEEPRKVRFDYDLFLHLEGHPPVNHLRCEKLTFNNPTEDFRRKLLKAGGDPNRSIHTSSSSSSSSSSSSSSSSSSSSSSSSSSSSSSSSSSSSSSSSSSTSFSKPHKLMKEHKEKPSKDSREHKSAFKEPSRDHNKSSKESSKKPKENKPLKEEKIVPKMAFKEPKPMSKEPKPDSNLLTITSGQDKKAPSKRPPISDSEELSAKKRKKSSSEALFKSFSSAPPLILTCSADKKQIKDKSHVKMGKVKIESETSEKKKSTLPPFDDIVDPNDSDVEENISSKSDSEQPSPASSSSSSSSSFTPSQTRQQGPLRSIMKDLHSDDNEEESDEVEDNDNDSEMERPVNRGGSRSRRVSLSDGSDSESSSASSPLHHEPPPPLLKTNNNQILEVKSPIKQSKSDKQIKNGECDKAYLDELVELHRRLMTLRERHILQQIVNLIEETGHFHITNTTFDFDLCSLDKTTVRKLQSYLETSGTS
RanGTP-Imp inh = disruptors of Ran-importin-beta complex formation – biochemical, FRET, CFP-Ran, YFP-importin-beta, homogeneous, primary screen. 300,000 tested, 1.1% active. cell-free CFP-Ran/YFP-importin-beta FRET ratio. inhibition, % (concentration not given with the values);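 active = most replicates above 15%; inconclusive = exactly half above 15%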;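 also: 0% = DMSO wells and 100% = Ran loaded with GDP instead of GTP; wells of about 40 µL received 100 nL stock; the first replicate is given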
T cruzi repl = T. cruzi replication inhibition; T. cruzi beta-gal in NIH3T3, luminescence, 90 h; inhibition, % (test concentration not listed); 300,000 tested, 1.4% active;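 active = mean inhibition across valid replicates above about 55%, limit read from the data; inconclusive = mean below that limit but half or more replicates reach it; inactive = mean below it, under half of replicates reach it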;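 also: signal also drops with host cell toxicity which is not excluded here; 0% = plate median of DMSO wells and 100% = zero luminescence signal; higher percent means less beta-gal luminescence so fewer parasites; stock transfer was 50 nL into about 50 µL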
Ecoli rRNA inh OD600 = second read-out of Ecoli rRNA inh, no call of its own (marks repeat the call); OD600 change, %; measured here: OD600 growth;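 optical density of the mix in the first replicate; 0 = DMSO median and -100 = no signal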
Ecoli rRNA inh RFP = second read-out of Ecoli rRNA inh, no call of its own (marks repeat the call); RFP signal change, %; measured here: RFP humanized mutant strains;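 first replicate; 0 = DMSO median and -100 = no signal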
Starred values were filed as active, the others as inactive; & = joins results of further samples. Some of the compounds tested, so the mix of outcomes need not match the whole.

How did OCC1(Cc2ccccc2)CCN(C2CCN(c3ccccc3F)CC2)CC1 do in these assays?
Ecoli rRNA inh: 4; Beta apoptosis: 5; Calb FLC: -24; Vif TR-FRET: -2%; Bfl-1 A1 inh: -0.1; AF4-AF9 inh: 1.7; Ecoli rRNA inh OD600: 19; Ecoli rRNA inh RFP: 1.0

What do the screens show for `N#Cc1cnn2c1nc(N1CCCCC1)c1ccccc12`?
Beta apoptosis: -5; Calb FLC: -7; Vif TR-FRET: -13%; Bfl-1 A1 inh: 0.5; RanGTP-Imp inh: 1.8; T cruzi repl: -1

How did C=CCC[C@H](Cc1ccc(F)cc1)C(=O)OC[C@@H](NC(=O)[C@H](CC=C)CC(=O)NCCO)C(C)(C)C do in these assays?
Ecoli rRNA inh: -22; Beta apoptosis: -4; Bfl-1 A1 inh: -0.8; AF4-AF9 inh: -8.4; Ecoli rRNA inh OD600: -32; Ecoli rRNA inh RFP: -1.4

What do the screens show for `O=[N+]([O-])c1ccc(CN2CCSCC2)cc1`?
Ecoli rRNA inh: 7; Beta apoptosis: -3; Calb FLC: 13; Vif TR-FRET: -8%; Bfl-1 A1 inh: 0.3; AF4-AF9 inh: 2.1; RanGTP-Imp inh: 5.0; T cruzi repl: -9; Ecoli rRNA inh OD600: -2; Ecoli rRNA inh RFP: -5.7

How did O=C(Cn1nc(C(=O)O)c2ccccc2c1=O)Nc1cc(Cl)ccc1-n1cncn1 do in these assays?
Ecoli rRNA inh: 5; Beta apoptosis: 4; Vif TR-FRET: -7%; Bfl-1 A1 inh: -1.1; AF4-AF9 inh: -4.2; Ecoli rRNA inh OD600: 9; Ecoli rRNA inh RFP: -6.3

How did CCN1CCN(CC(=O)c2c[nH]c3ccccc23)CC1 do in these assays?
Beta apoptosis: -5; Calb FLC: 0; Vif TR-FRET: 9%; Bfl-1 A1 inh: 0.0; RanGTP-Imp inh: -3.3; T cruzi repl: 33

How did COc1ccc([N+](=O)[O-])cc1Nc1c2ccccc2nc2ccccc12 do in these assays?
Ecoli rRNA inh: 7; Beta apoptosis: 66; Calb FLC: -2; Vif TR-FRET: 6%; Bfl-1 A1 inh: -0.1; AF4-AF9 inh: 3.5; RanGTP-Imp inh: inconclusive; T cruzi repl: 33; Ecoli rRNA inh OD600: 10; Ecoli rRNA inh RFP: 0.4

How did O=c1[nH]c(C(F)(F)F)nc2c1nnn2Cc1ccccc1F do in these assays?
Beta apoptosis: -2; Calb FLC: 6; Vif TR-FRET: 4%; Bfl-1 A1 inh: 0.0; RanGTP-Imp inh: inconclusive; T cruzi repl: -2

How did CC(=O)Nc1ccc(S(=O)(=O)Nc2cc(C)ccn2)cc1 do in these assays?
Beta apoptosis: -14; Calb FLC: 1; Vif TR-FRET: -5%; Bfl-1 A1 inh: -0.1; RanGTP-Imp inh: 1.9; T cruzi repl: -9

How did COC(=O)c1sc(NC(=O)c2c(C)noc2C)nc1C do in these assays?
Ecoli rRNA inh: 9; Beta apoptosis: -6; Calb FLC: 9; Vif TR-FRET: -2%; Bfl-1 A1 inh: -3.5; AF4-AF9 inh: 0.3; RanGTP-Imp inh: -1.2; T cruzi repl: -3; Ecoli rRNA inh OD600: 9; Ecoli rRNA inh RFP: 4.5

Results for CCN(CC)S(=O)(=O)c1ccc(NS(=O)(=O)c2ccc(O)c([N+](=O)[O-])c2)cc1 ?
Beta apoptosis: -9; Calb FLC: -4; Vif TR-FRET: 10%; Bfl-1 A1 inh: 1.0; RanGTP-Imp inh: -1.0; T cruzi repl: -12

What do the screens show for `CCCNCc1nnc(-c2ccccc2Cl)o1`?
Beta apoptosis: 1; Calb FLC: 20; Vif TR-FRET: -5%; Bfl-1 A1 inh: -0.8; RanGTP-Imp inh: 3.0; T cruzi repl: -13

How did O=S(=O)(Cc1cc(Sc2ccccc2)nc(-c2ccccc2)n1)c1ccccc1 do in these assays?
Beta apoptosis: -3; Calb FLC: 6; Vif TR-FRET: 0%; Bfl-1 A1 inh: 0.5; RanGTP-Imp inh: -9.2; T cruzi repl: 27

How did C=CCOc1ccc(/C(O)=C2/C(=O)C(=O)N(CCCn3ccnc3)C2c2ccco2)cc1 (stereo unspecified) do in these assays?
Ecoli rRNA inh: 11; Beta apoptosis: -12; Calb FLC: 3; Vif TR-FRET: -2%; Bfl-1 A1 inh: -0.7; AF4-AF9 inh: -1.3; RanGTP-Imp inh: -2.7; T cruzi repl: 2; Ecoli rRNA inh OD600: 11; Ecoli rRNA inh RFP: -1.1

What do the screens show for `CCC1(C)N(O)C(C)(C)C(c2ccc(F)cc2)=[N+]1[O-]` (stereo unspecified)?
Beta apoptosis: -2; Calb FLC: -5; Vif TR-FRET: 6%; Bfl-1 A1 inh: -0.5; RanGTP-Imp inh: -1.8; T cruzi repl: 4

How did COc1cccc(N2CC(NC(=O)c3cccc4ccccc34)CC2=O)c1 (stereo unspecified) do in these assays?
Ecoli rRNA inh: -3; Beta apoptosis: 0; Calb FLC: 21; Vif TR-FRET: 2%; Bfl-1 A1 inh: 0.1; AF4-AF9 inh: -2.0; RanGTP-Imp inh: -1.3; T cruzi repl: -7; Ecoli rRNA inh OD600: -1; Ecoli rRNA inh RFP: -0.2

How did C/C(=N\NC(=O)c1cc(C)nc2ccccc12)c1cccc(Cl)c1 do in these assays?
Ecoli rRNA inh: 0; Calb FLC: 2; Bfl-1 A1 inh: 0.0; AF4-AF9 inh: -7.1; RanGTP-Imp inh: -4.5; T cruzi repl: 2; Ecoli rRNA inh OD600: 9; Ecoli rRNA inh RFP: -0.1

Results for Cc1nn(C)cc1S(=O)(=O)N1CCN(Cc2ccccc2Cl)CC1 ?
Ecoli rRNA inh: 6; Calb FLC: 1; Vif TR-FRET: -4%; Bfl-1 A1 inh: -1.2; AF4-AF9 inh: 2.2; RanGTP-Imp inh: -7.9; T cruzi repl: -1; Ecoli rRNA inh OD600: -1; Ecoli rRNA inh RFP: 2.1

Results for CCOc1ccc(-c2cccc(NS(=O)(=O)c3ccccc3[N+](=O)[O-])c2)nn1 ?
Ecoli rRNA inh: -7; Calb FLC: 42; Vif TR-FRET: -2%; Bfl-1 A1 inh: 0.6; AF4-AF9 inh: -2.5; RanGTP-Imp inh: 2.9; T cruzi repl: -3; Ecoli rRNA inh OD600: -14; Ecoli rRNA inh RFP: -0.8

Results for Cc1cc(C)n2nc(C(=O)OCC(=O)Nc3ccc(C)c(F)c3)nc2n1 ?
Ecoli rRNA inh: 10; Beta apoptosis: -2; Bfl-1 A1 inh: -0.2; AF4-AF9 inh: -1.3; Ecoli rRNA inh OD600: 20; Ecoli rRNA inh RFP: 0.5

What do the screens show for `COc1ccc(NC(=O)CCC(=O)OCC(=O)c2ccc(Oc3ccc([N+](=O)[O-])cc3)cc2)cc1`?
Ecoli rRNA inh: 16; Beta apoptosis: 0; Calb FLC: -17; Bfl-1 A1 inh: -0.1; AF4-AF9 inh: -5.2; RanGTP-Imp inh: -0.9; T cruzi repl: -15; Ecoli rRNA inh OD600: 11; Ecoli rRNA inh RFP: 1.7

What do the screens show for `CC/C(=N\NC(=O)Nc1nonc1N)c1ccc(OC)c(OC)c1`?
Ecoli rRNA inh: -2; Beta apoptosis: -3; Calb FLC: -5; Vif TR-FRET: -3%; Bfl-1 A1 inh: 0.5; AF4-AF9 inh: -2.3; RanGTP-Imp inh: -0.3; T cruzi repl: -8; Ecoli rRNA inh OD600: 12; Ecoli rRNA inh RFP: -0.1

Results for O=C(Nc1ccc(Br)cc1)c1cccn1-c1ncc(C(F)(F)F)cc1Cl ?
Beta apoptosis: 16; Calb FLC: 10; Vif TR-FRET: 5%; Bfl-1 A1 inh: 0.6; RanGTP-Imp inh: -2.0; T cruzi repl: 34

Results for COc1ccc(OC)c(CNC(=O)CCSCc2ccc(F)cc2Cl)c1 ?
Ecoli rRNA inh: -12; Beta apoptosis: 1; Calb FLC: 10; Bfl-1 A1 inh: -0.2; AF4-AF9 inh: -0.4; RanGTP-Imp inh: 7.1; T cruzi repl: 8; Ecoli rRNA inh OD600: -30; Ecoli rRNA inh RFP: -6.5

Results for CC(C)N(Cc1nccn1C)C(=O)CC1C(=O)NCCN1Cc1ccc(F)c(F)c1 (stereo unspecified) ?
Ecoli rRNA inh: 8; Beta apoptosis: 4; Calb FLC: -10; Vif TR-FRET: -9%; Bfl-1 A1 inh: 0.0; AF4-AF9 inh: -1.1; RanGTP-Imp inh: -3.5; T cruzi repl: -9; Ecoli rRNA inh OD600: 19; Ecoli rRNA inh RFP: -2.5

What do the screens show for `COC(=O)c1cccc(NC(=O)CSc2nnc(C)n2Cc2ccccc2)c1`?
Beta apoptosis: -3; Calb FLC: -2; Vif TR-FRET: 3%; Bfl-1 A1 inh: 0.5; RanGTP-Imp inh: 6.3; T cruzi repl: -11

Results for NS(=O)(=O)c1ccc(CCNC(=O)C(=O)NCC2OCCN2C(=O)c2ccc3c(c2)OCO3)cc1 (stereo unspecified) ?
Ecoli rRNA inh: 14; Beta apoptosis: -2; Calb FLC: -4; Vif TR-FRET: 2%; Bfl-1 A1 inh: 0.1; AF4-AF9 inh: -0.7; RanGTP-Imp inh: -2.0; T cruzi repl: -11; Ecoli rRNA inh OD600: 2; Ecoli rRNA inh RFP: -1.5

Results for Brc1ccc2[nH]c3nc(SCCN4CCOCC4)nnc3c2c1 ?
Ecoli rRNA inh: 2; Beta apoptosis: 15; Calb FLC: 1&-21; Vif TR-FRET: -1%; Bfl-1 A1 inh: -0.3&0.4; AF4-AF9 inh: -1.5; RanGTP-Imp inh: 7.1&-1.1; T cruzi repl: 7&18; Ecoli rRNA inh OD600: 17; Ecoli rRNA inh RFP: -1.9

Results for COc1ccc(C(C[N+](=O)[O-])c2c(-c3ccccc3)cc3ccccn23)c(OC)c1 (stereo unspecified) ?
Beta apoptosis: 7; Calb FLC: 1; Vif TR-FRET: inconclusive; Bfl-1 A1 inh: 0.7; RanGTP-Imp inh: -3.4; T cruzi repl: 34

2 consecutive compounds already listed, quoted:
Results for Brc1ccc2[nH]c3nc(SCCN4CCOCC4)nnc3c2c1 ?
Ecoli rRNA inh: 2; Beta apoptosis: 15; Calb FLC: 1&-21; Vif TR-FRET: -1%; Bfl-1 A1 inh: -0.3&0.4; AF4-AF9 inh: -1.5; RanGTP-Imp inh: 7.1&-1.1; T cruzi repl: 7&18; Ecoli rRNA inh OD600: 17; Ecoli rRNA inh RFP: -1.9

Results for COc1ccc(C(C[N+](=O)[O-])c2c(-c3ccccc3)cc3ccccn23)c(OC)c1 (stereo unspecified) ?
Beta apoptosis: 7; Calb FLC: 1; Vif TR-FRET: inconclusive; Bfl-1 A1 inh: 0.7; RanGTP-Imp inh: -3.4; T cruzi repl: 34
